Screens: PubChem, Johns Hopkins Ion Channel Center
KCNQ2 pot: potentiators of rat KCNQ2 potassium channel; CHO-K1 KCNQ2, FluxOR thallium flux fluorescence; hits give high values; B-score at 10 µM; 310,000 compounds, 0.54% hits;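 active = fluorescence ratio B-score at least 3 SD of library B-scores, with initial fluorescence B-score within 3 SD, cut at about 5.3 in these data; same plate scores as AID 2156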;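 note: B-score of peak minus minimum over baseline fluorescence ratio after K+ and Tl+ stimulus; positive B-score means potentiation of KCNQ2 with more thallium influx and brighter signal; only the inactives scoring about 0 or higher are listed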
Target sequence (O88943 whole entry, looked up): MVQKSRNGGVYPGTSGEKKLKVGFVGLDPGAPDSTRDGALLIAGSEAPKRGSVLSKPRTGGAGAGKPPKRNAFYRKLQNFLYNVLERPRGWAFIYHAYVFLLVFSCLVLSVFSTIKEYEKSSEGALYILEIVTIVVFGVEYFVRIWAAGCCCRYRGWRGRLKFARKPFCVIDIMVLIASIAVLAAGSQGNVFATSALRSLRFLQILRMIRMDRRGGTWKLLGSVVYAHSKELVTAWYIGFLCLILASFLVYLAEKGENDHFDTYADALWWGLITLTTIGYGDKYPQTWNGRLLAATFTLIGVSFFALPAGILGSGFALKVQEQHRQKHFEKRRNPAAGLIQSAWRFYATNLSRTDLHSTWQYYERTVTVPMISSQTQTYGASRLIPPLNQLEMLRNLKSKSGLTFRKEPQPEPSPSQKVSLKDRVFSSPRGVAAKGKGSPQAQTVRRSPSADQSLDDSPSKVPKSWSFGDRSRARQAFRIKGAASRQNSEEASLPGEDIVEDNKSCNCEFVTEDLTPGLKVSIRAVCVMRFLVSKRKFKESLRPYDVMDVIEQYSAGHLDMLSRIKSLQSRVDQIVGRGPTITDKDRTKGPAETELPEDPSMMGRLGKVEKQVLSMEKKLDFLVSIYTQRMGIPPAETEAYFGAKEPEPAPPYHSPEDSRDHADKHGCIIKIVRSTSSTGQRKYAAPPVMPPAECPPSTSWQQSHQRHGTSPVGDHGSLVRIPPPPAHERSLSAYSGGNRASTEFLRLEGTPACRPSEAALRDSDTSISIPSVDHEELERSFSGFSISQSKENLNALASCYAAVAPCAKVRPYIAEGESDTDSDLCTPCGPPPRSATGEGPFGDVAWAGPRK
KCNQ2 pot baseline: recorded beside KCNQ2 pot, whose call it bears; B-score; compound at 10 µM; measured here: initial fluorescence intensity artifact check;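 brightness before thallium and not channel activity; 0 = typical well and far values either way flag optical interference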
* = called active by the depositor; . = no result given.

Order of values – KCNQ2 pot, KCNQ2 pot baseline
- O=C(CCCCn1c(=O)[nH]c2ccccc2c1=O)NC1CCN(Cc2ccccc2)CC1
    0.28, -0.64
- C#Cc1ccc(CN2CCC(C(=O)Nc3ccc(Oc4ccccc4)nc3)CC2)cc1
    0.48, 0.25
- Cc1ccc(NS(=O)(=O)c2ccc(C)c(C(=O)N3CCOCC3)c2)cc1
    0.58, -0.51
- CCOc1cc(/C=C\c2nc(O)c([N+](=O)[O-])c(=O)[nH]2)ccc1OC(C)CC (centres undefined)
    0.93, 0.05
- CCOc1cc(NC(=O)c2cccs2)c(OCC)cc1NC(=O)c1cccnc1
    0.14, -0.02
- Cc1cccc(C)c1NC(=O)CNC(=O)c1c(C)nn(-c2ccccc2)c1Cl
    0.18, -1.5
- CC(C)Cn1c(SCC(=O)NCc2ccco2)nnc1-c1ccncc1
    0.86, -0.58
- Cc1ccc(C)c(NC(=S)NC(=O)c2cncc(Br)c2)c1
    3.7, -1.3
- CCCCNCCOc1ccccc1-c1ccccc1
    0.77, -0.69
- Cc1cccc(N2CCN(CC3CCCCC3)CC2)c1C
    0.48, 0.08
- CC1=NN(S(=O)(=O)c2ccc(F)cc2)C(=O)c2ccccc2O1
    0.38, -0.07
- C=CCn1c(-c2cccnc2Cl)nc2ccccc21
    0.44, 0.64
- O=C(COc1ccccc1Cl)N1CCCCCCC1
    0.05, 0.16
- O=C(O)CCC(=O)N1CCN(S(=O)(=O)c2cccs2)CC1
    0.42, 4
- CC(=O)N1CCN(c2ccccc2NC(=O)c2ccc(C#N)cc2F)CC1
    0.5, 0.82
- CCN(Cc1ccccc1)S(=O)(=O)c1c(C)[nH]c(C)c1C(=O)N1CCCC1
    0.51, 3.7
- O=C(Nc1nc2ccccc2[nH]1)c1cccc([N+](=O)[O-])c1
    0.38, 2.6
- CCOC(=O)c1ccc(NC(=O)CSc2nnc(CNC(=O)c3ccco3)o2)cc1
    2, -1.2
- CCN1CCc2c(OCC(=O)Nc3ccc4c(c3)OCCO4)cccc2C1=O
    1.2, -0.65
- Cc1ccccc1C(=O)c1cccn1CC(=O)NCCCN1CC(C)CC(C)C1 (centres undefined)
    0.03, 0.18
- O=C(CSc1ccncc1)Nc1ccc2ccccc2c1
    0.73, -0.12
- CCCCNC(=O)CN1C(=O)NC(Cc2ccccc2)(Cc2ccccc2)C1=O
    0.34, -0.31
- CC1(C)CCC(=O)C=C1Nc1ccc(F)c(Cl)c1
    1.8, 0.56
- CCCNC(=O)COC(=O)c1c2c(nc3ccccc13)CCC2
    1.1, -0.22
- Cc1ccc(C)c(OCC(=O)Nc2ccc(S(=O)(=O)Nc3ncccn3)cc2)c1
    1.4, -0.23
- NNC(=O)/C(=C\c1cccs1)NC(=O)c1ccccc1
    0.02, 0.68
- O=C(NCCOC(=O)c1cccs1)c1cccnc1
    1.4, -0.59
- COc1ccccc1CNC(=O)CN1CCN(c2ccc(C(C)=O)cc2)CC1
    0.69, 1.9
- Cc1ccc(S(=O)(=O)N2CCCC(c3nnc4n3-c3ccccc3SC4)C2)cc1 (centres undefined)
    0.53, 0.62
- CCc1cc2c(NC(Cc3c[nH]c4ccccc34)C(=O)O)nc(C)nc2s1 (centres undefined)
    1.8, 0
- CCc1[nH]nc2c1C(C1C=CCCC1)C(C#N)=C(N)O2 (centres undefined)
    0.71, 0.01
- CC(=O)Nc1ccc(S(=O)(=O)Nc2ccc(N3CCOCC3)c(F)c2)cc1
    1.7, 0.65
- CC1CCN(S(=O)(=O)c2ccc(C(=O)OC(C)C(=O)NC3CCCCC3C)cc2)CC1 (centres undefined)
    1.9, 0.44
- COC(=O)C1=C(C)N(CCCC(=O)O)C(=O)NC1c1ccccc1Cl (centres undefined)
    0.07, -2.1
- Cc1ccsc1C(=O)OC1CCOC1=O (centres undefined)
    0.6, 0.68
- CC(=O)NC(CC(=O)N(C)Cc1c(F)cccc1Cl)c1ccccc1 (centres undefined)
    0.66, -0.18
- CCOc1ccccc1C(=O)NC1CC2CCCC(C1)N2Cc1nnnn1Cc1ccco1 (centres undefined)
    1.1, -0.21
- COC(=O)C(CC(C)C)NC(=O)CSc1nc(-c2ccccc2)c(C#N)c(=O)[nH]1 (centres undefined)
    0.55, -0.01
- COc1ccccc1C(=O)N1CCN(CCc2ccccc2)CC1
    1.4, -1.5
- COc1ccc(C(=O)N2CC3(CC(c4cccc(NC(=O)CC(c5ccccc5)c5ccccc5)c4)=NO3)C[C@H]2C(N)=O)cc1 (some centres undefined)
    1.2, 1.5
- CCOC(=O)c1c(C)nsc1NCc1ccccc1
    0.55, 1.6
- O=C(CSCc1ccccc1)Nc1cccc(C(=O)Nc2ccccc2C(=O)O)c1
    1.3, -0.44
- O=S(=O)(c1ccc(N2CCCCCC2)nc1)N1CCCC1
    0.96, -1.8
- Nc1cc(-c2ccccc2)nn1Cc1ccc(Cl)cc1
    0.72, -1.5
- Cn1cc(-c2cccc(Cl)c2)cc(C#N)c1=O
    0.25, 1.4

Structures from the list above that have a cyano group (4):
Order of values – KCNQ2 pot, KCNQ2 pot baseline
- CC(=O)N1CCN(c2ccccc2NC(=O)c2ccc(C#N)cc2F)CC1
    0.5, 0.82
- CCc1[nH]nc2c1C(C1C=CCCC1)C(C#N)=C(N)O2 (centres undefined)
    0.71, 0.01
- COC(=O)C(CC(C)C)NC(=O)CSc1nc(-c2ccccc2)c(C#N)c(=O)[nH]1 (centres undefined)
    0.55, -0.01
- Cn1cc(-c2cccc(Cl)c2)cc(C#N)c1=O
    0.25, 1.4

More results follow.
Order of values – KCNQ2 pot, KCNQ2 pot baseline
- CCN(Cc1ccc(NC(C)=O)cc1)CC1CCCN(CCc2cccc(OC)c2)C1 (centres undefined)
    1.3, 1.1
- COC(=O)c1cc2c(N)c(C(=O)c3ccc(Cl)cc3)sc2nc1C(OC)OC
    0.33, 0.62
- COc1ccc(NC(C)=O)cc1NC(=O)CSc1nnc(-c2ccc(F)cc2)n1N
    0.4, 0.11
- COC(=O)C(Cc1ccccc1)NC(=O)COc1ccc(C(C)(C)C)cc1 (centres undefined)
    -5.6, .
- CNC(=O)COC(=O)COc1ccc2c(C)cc(=O)oc2c1
    1.2, -0.84
- COC(=O)c1ccccc1NC(=O)CN(c1ccc(C)cc1)S(C)(=O)=O
    1.2, 0.17
- COc1ccc(S(=O)(=O)Nc2cc(C(=O)NCCCN3CCOCC3)ccc2N2CCOCC2)cc1
    1.1, -0.33
- CC(=O)Nc1cccc(OCC(=O)NC(C)C(C)C)c1 (centres undefined)
    1.6, 0.58
- Cc1ccc(C)c(C(=O)NCCN(C)C)c1
    2, -0.59
- Cc1ccc(Cn2c(=N)c(C(=O)NC3CCCCC3)cc3c(=O)n4ccccc4nc32)cc1
    0.84, -0.32
- CC(=O)N1CCC(CCCC2CCN(C(C)=O)CC2)CC1
    1.7, -1.4
- CC1=CC(C)C2(CO)COC(c3ccc(O)cc3)C1C2C (centres undefined)
    0.7, -1
- CCN1C(=O)[C@H]2[C@H]3[C@H](O)[C@H](O)C/C(=N\O[C@H](C)c4cn([C@H](CO)Cc5ccccc5)nn4)[C@@H]3CC[C@H]2C1=O
    0.84, -0.58
- Cc1cc(C(=O)NCCCC(=O)O)c(C)o1
    0.1, 0.13
- COc1ccc(CNC(C)CCc2ccccc2)cc1 (centres undefined)
    3.1, -0.05

The closing 3 entries of the part before open the next one.
Order of values – KCNQ2 pot, KCNQ2 pot baseline
- CCN1C(=O)[C@H]2[C@H]3[C@H](O)[C@H](O)C/C(=N\O[C@H](C)c4cn([C@H](CO)Cc5ccccc5)nn4)[C@@H]3CC[C@H]2C1=O
    0.84, -0.58
- Cc1cc(C(=O)NCCCC(=O)O)c(C)o1
    0.1, 0.13
- COc1ccc(CNC(C)CCc2ccccc2)cc1 (centres undefined)
    3.1, -0.05
- COc1cc(/C=N/NC(=O)C(NC(=O)c2ccccc2)c2n[nH]c(=O)c3ccccc23)ccc1OCC(N)=O (centres undefined)
    2, -1.2
- CC1CCN(S(=O)(=O)c2ccc3[nH]c(=O)ccc3c2)CC1
    0.68, -0.01
- Cn1c(=O)[nH]c(=O)c2c1nc(N1CCN(CCO)CC1)n2Cc1ccccc1Cl
    0.17, -0.09
- CCOC(=O)c1sc(NC(=O)C2CC(=O)N(c3ccc(OCC)cc3)C2)nc1C (centres undefined)
    1.3, -1.7
- CCOc1ccc(N2C(=O)C3C(c4ccccc4F)NN(C(=O)c4ccc(C)cc4)C3C2=O)cc1 (centres undefined)
    0.04, -0.21
- CCOC(=O)c1ccc(N2C(=O)C(O)=C(C(C)=O)C2c2ccccn2)cc1 (centres undefined)
    1.2, 0.1
- O=c1[nH]c2ccccc2cc1CN(Cc1cccnc1)S(=O)(=O)c1ccc([N+](=O)[O-])cc1
    0.94, -0.52
- COC/C=C/C1=CC2=CC(=O)C(C)(OC(=O)c3cnc4ccccc4n3)C(=O)C2=CN1C(CO)CO (centres undefined)
    0.65, 0.11
- Cc1noc(C)c1C(=O)N1CCC(C(=O)c2ccccc2)CC1
    0.49, 0.19
- CCOc1ccc(-c2nnc(N)s2)cc1
    0.37, -0.2
- CCOC1=NN(c2ncc(C(F)(F)F)cc2Cl)C(=O)/C1=C/N(C)C
    1, 0.36
- CC(C)(C)c1ccc(-n2ncc3c2CCCC3NC(=O)c2ccncc2)cc1 (centres undefined)
    0.01, -0.17
- CCCOc1ncnc2c1[nH]c1ccc(C)cc12
    1.9, 1.1
- O=C(CSCc1ccc([N+](=O)[O-])cc1)NC1CC1
    0.55, -0.24
- O=C(Cn1c(=O)oc2ccccc21)NC(=O)NCc1ccco1
    0.54, 1.6
- O=C(Nc1cccc(O)c1)c1ccc(NC(=O)c2cccs2)cc1
    1.2, -0.55
- CS(=O)(=O)N(CC(=O)NCC1CCCO1)c1cc(Cl)c(Cl)cc1Cl (centres undefined)
    1.4, 1.8
- Cc1ccc(NC(=O)CCNS(=O)(=O)c2cccc3nonc23)cc1Cl
    0.3, 2.4
- Cc1cc(C)nc(SCC(=O)OCC(=O)Nc2nc3ccccc3s2)n1
    0.52, -0.04
- COc1ccc(N2CC(NC(=O)N3CCN(c4ccccc4)CC3)CC2=O)cc1 (centres undefined)
    0.6, -0.01
- Cc1cc(Cl)ccc1NC(=S)NCC(O)c1ccccc1 (centres undefined)
    0.44, -1.3
- CCCCN(CC)CCCNC(=O)C1c2ccccc2C(=O)N(C)C1c1cn(C)c2ccccc12 (centres undefined)
    0.97, -1.9
- COCC(C)NS(=O)(=O)c1ccc(C(=O)NCCCn2ccc3ccccc32)cc1 (centres undefined)
    0.02, 0.78
- Cc1ccc(C(=O)N/N=C\c2cccnc2)s1
    0.58, -0.24
- CS(=O)(=O)Nc1ccc(C(=O)N2CCN(c3ccccc3)CC2)cc1
    0.36, -0.05
- CCOc1ccc(S(=O)(=O)NCCC(=O)N2CCCC(C)C2)cc1 (centres undefined)
    0.51, -0.36
- CC(/C=C/c1ccccc1)=N\NC(=O)Cn1cncn1
    2, 0.36
- O=C(COC(=O)CNC(=O)c1ccccc1)Nc1ccc(S(=O)(=O)N2CCOCC2)cc1
    0.16, -0.56
- O=C(Nc1ccc2c(c1)N(S(=O)(=O)c1cccs1)CCC2)c1c(F)cccc1F
    1.4, 0.49
- CCOc1ccccc1NC(=O)N1CCC(NC(=O)c2ccccc2C)CC1
    0.07, 0.46

Random excerpt: 2 compounds from above
Order of values – KCNQ2 pot, KCNQ2 pot baseline
- COc1ccc(NC(C)=O)cc1NC(=O)CSc1nnc(-c2ccc(F)cc2)n1N
    0.4, 0.11
- COc1ccccc1CNC(=O)CN1CCN(c2ccc(C(C)=O)cc2)CC1
    0.69, 1.9

Going on with the list:
Order of values – KCNQ2 pot, KCNQ2 pot baseline
- COC(=O)c1cc(C(=O)N2CCN(c3ncccn3)CC2)cc([N+](=O)[O-])c1
    1, 0.04
- Cc1cc(C)c(S(=O)(=O)Nc2ncn[nH]2)c(C)c1
    2.1, 0.66
- O=C(NC(=S)Nc1ccc(N2CCOCC2)cc1)c1cncc(Br)c1
    0.02, 0.99
- COC(=O)[C@H](Cc1c[nH]c2ccccc12)NC(=O)NCc1ccc(OC)cc1
    0.07, -0.55
- CCOC(=O)C1(Cc2cccc(OC)c2)CCCN(C(=O)CCSC)C1 (centres undefined)
    0.77, 0.03
- NC1=C(Br)C(=O)c2ccccc2C1=O
    2.8, -3.4
- Cc1ccc(C)c(OCC(=O)Nc2ccc(N3CCOCC3)cc2)c1
    0.77, -0.68
- CC(NC(=O)Nc1ccc(F)cc1)C(c1cccs1)N1CCCC1 (centres undefined)
    1.7, -0.65
- O=C(c1cccs1)N1CCN(C(=O)N2CCOCC2)CC1
    0.05, -0.61
- O=C(NCC1CCCO1)C1CC(=O)N(C2CCCCCC2)C1 (centres undefined)
    1.4, 0.12
- O=C(c1ccco1)N1CCN(S(=O)(=O)c2cccc([N+](=O)[O-])c2)CC1
    0.34, 0.11
- Cc1cc(C(=O)CSc2nnc(Cc3ccccc3)o2)c(C)n1Cc1ccc2c(c1)OCO2
    0.87, 0.32
- COc1ccc(N(CC(=O)N2c3ccccc3CC2C)S(=O)(=O)c2c(C)nn(C)c2C)cc1 (centres undefined)
    0.04, 0.67
- Cn1cccc1-c1cc(C(=O)N/N=C/c2ccccc2Cl)[nH]n1
    2.8, -0.39
- CCOC(=O)c1ccc(NC(=O)CN2C(=O)CN(C(C)=O)C2=S)cc1
    1.1, -0.14
- CN1CCN(c2nnc(-c3cccs3)c3ccccc23)CC1
    2.4, 0.98
- Cc1nc(CNS(=O)(=O)c2ccc(Oc3ccccc3)cc2)cs1
    0.04, 1.2
- Cc1cc(OCC(=O)NC(C)C)ccc1Cl
    1.4, -0.23
- CCCOc1ccc(C(=O)N2CCCC2C(=O)O)cc1 (centres undefined)
    1.2, 0.17
- O=C(NCCN1CCCCC1)Nc1cccc(F)c1
    0.55, -2.6
- O=C(CCCCCN1C(=O)c2cccc3cccc(c23)C1=O)NCc1ccco1
    0.15, -0.23

These rows are one share of the data, so the mix of outcomes need not match the whole.
